Assay outcomes as filed in PubChem.
DUX4 inh – blocks DUX4-driven transcriptional activation. 293T-iDUX4 ZSCAN4-Gaussia luciferase reporter, 24 h; hits give low values. activity change, negative = inhibition, % (no concentration beside the values). 37,000 compounds, 0.8% hits. AID 1224904;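 active means -10% or lower and over 25 points stronger than a control reporter; inconclusive means -10% or lower with a smaller gap; inactive means above -10%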;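 further: 0% = median of neutral control wells and -100% = median of positive control wells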
DUX4 inh difference – second read-out of DUX4 inh, no call of its own (marks repeat the call); Gaussia minus Italica difference, %; measured here: selective DUX4 reporter inhibition;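 worked out from the two reporters; negative = selective loss of the DUX4 reporter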
DUX4 inh control – further read-out of DUX4 inh, marked with its call; activity change, negative = inhibition, %; measured here: Italica tet-on control reporter;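 0 = neutral control and -100 = positive control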
Active calls of the source: *; ? = inconclusive; . = not tested or not shown; & = joins results of further samples. The list is partial; the hit share may differ from the screen's.

No.	compound	DUX4 inh	DUX4 inh difference	DUX4 inh control
1	C[C@H]1CN([C@@H](C)CO)C(=O)c2c(c3ccccc3n2C)-c2ccccc2CO[C@H]1CN(C)Cc1cccc2c1OCCCO2	?	.	.
2	COc1ccc(C[C@@H]2CCc3cnnn3COC[C@@H](c3ccccc3)NC2=O)cc1	1	0	1.4
3	CC(C)NC(=O)N1[C@H](CO)[C@@H](c2ccccc2)[C@@H]1CN(C)C(=O)c1cccnc1	-1	-4	2.4
4	C[C@@H]1CN([C@H](C)CO)C(=O)CCCn2cc(nn2)CO[C@@H]1CN(C)S(=O)(=O)c1ccc2ccccc2c1	-2	-4	2.0
5	CN1CCN(C(=O)C[C@H]2CC[C@@H]3[C@H](COC[C@H](O)CN3Cc3cccc(-c4ccncc4)c3)O2)CC1	-1	6	-7.2
6	C/C=C/c1cnc2c(c1)C(=O)N([C@@H](C)CO)C[C@H](C)[C@H](CN(C)C(=O)c1cnccn1)O2	4	2	2.0
7	Cc1ccc(-c2ccccc2[C@@H]2[C@@H](CO)N(C(=O)Cc3cccnc3)[C@H]2C#N)cc1	-2	2	-4.8
8	C[C@H]1CN([C@@H](C)CO)C(=O)CCCn2nncc2CO[C@H]1CN(C)Cc1ccc(Cl)c(Cl)c1	?	.	.
9	C[C@H]1CN([C@@H](C)CO)C(=O)CCCn2cc(nn2)CO[C@@H]1CN(C)Cc1cccc(O)c1	3	0	2.5
10	C[C@H]1CN([C@@H](C)CO)C(=O)c2c(c3ccccc3n2C)-c2ccccc2CO[C@H]1CN(C)C(=O)[C@H]1CCCN1C	4	8	-3.2
11	CNC[C@H]1Oc2ccc(NC(=O)CCN3CCOCC3)cc2CC(=O)N([C@@H](C)CO)C[C@H]1C	-1	-1	-0.1
12	O=C(c1ccccc1F)N1CC2(C1)[C@@H](c1ccccc1)[C@@H](CO)N2CC1CC1	-3	4	-6.9

Four entries drawn at random from those above:
No.	compound	DUX4 inh	DUX4 inh difference	DUX4 inh control
11	CNC[C@H]1Oc2ccc(NC(=O)CCN3CCOCC3)cc2CC(=O)N([C@@H](C)CO)C[C@H]1C	-1	-1	-0.1
8	C[C@H]1CN([C@@H](C)CO)C(=O)CCCn2nncc2CO[C@H]1CN(C)Cc1ccc(Cl)c(Cl)c1	?	.	.
9	C[C@H]1CN([C@@H](C)CO)C(=O)CCCn2cc(nn2)CO[C@@H]1CN(C)Cc1cccc(O)c1	3	0	2.5
4	C[C@@H]1CN([C@H](C)CO)C(=O)CCCn2cc(nn2)CO[C@@H]1CN(C)S(=O)(=O)c1ccc2ccccc2c1	-2	-4	2.0

Further results:
No.	compound	DUX4 inh	DUX4 inh difference	DUX4 inh control
13	Cc1ccc(S(=O)(=O)NCC[C@@H]2CC[C@@H](NC(=O)CCN3CCCCC3)[C@H](CO)O2)cc1	-2	-5	3.3
14	CO[C@@H]1CN(C)C(=O)c2ccc(NC(=O)Cc3ccccc3)cc2OC[C@@H](C)N(CC2CC2)C[C@@H]1C	2	-2	3.5
15	O=C(C[C@@H]1C[C@@H]2c3cc(NC(=O)Nc4ccccc4)ccc3O[C@@H]2[C@@H](CO)O1)NCCN1CCCCC1	5	0	4.8
16	CCC(=O)N1[C@H](CO)[C@H](c2ccccc2)C12CN(C(=O)NC1CCCC1)C2	3	0	3.6
17	C[C@@H]1CN([C@@H](C)CO)S(=O)(=O)c2ccc(C#Cc3ccccn3)cc2O[C@H]1CN(C)Cc1cccc(F)c1	0	-3	2.5
18	O=C(C[C@H]1CC[C@H]2[C@@H](COC[C@@H](O)CN2S(=O)(=O)c2ccc(F)cc2)O1)NCCN1CCCCC1	7	8	-1.0
19	COCC(=O)N1CC[C@@H]2[C@H]1c1cc(C#Cc3ccc(F)cc3)ccc1N[C@@H]2CO	3	-1	4.5
20	CNC[C@@H]1OCCCC[C@@H](C)Oc2ccc(NC(=O)Nc3c(C)noc3C)cc2C(=O)N([C@H](C)CO)C[C@@H]1C	2	0	2.2
21	COc1ccc2c3c(n(C)c2c1)[C@H](CO)N(C(=O)c1ccccc1)CC31CCN(C)CC1	2	8	-5.7
22	CCS(=O)(=O)N1CC(=O)N2[C@H](C1)[C@H](c1ccc(-c3ccc(F)cc3)cc1)[C@@H]2CO	-4	-7	2.6
23	C[C@H](CO)N1C[C@H](C)[C@@H](CN(C)C(=O)c2ccc(F)cc2)Oc2ncc(C#CC3CC3)cc2C1=O	-1	1	-2.6
24	COCC(=O)N1[C@H](CO)[C@@H](c2ccccc2C2=CCCCC2)[C@@H]1C#N	10	2	8.4

Continued.
No.	compound	DUX4 inh	DUX4 inh difference	DUX4 inh control
25	CC(=O)N(C)C[C@@H]1Oc2cc(-c3ccc(C)cc3)ccc2S(=O)(=O)N([C@@H](C)CO)C[C@@H]1C	-7	-4	-3.5
26	C[C@H]1CCCCO[C@@H](CN(C)C(=O)Nc2cccc3ccccc23)[C@@H](C)CN([C@@H](C)CO)C(=O)c2cc(NS(=O)(=O)c3cn(C)cn3)ccc2O1	2	3	-1.4
27	N#C[C@H]1[C@H](c2ccccc2)[C@H](CO)N1C(=O)C1CCCC1	-2	-4	1.9
28	C[C@@H]1CN([C@@H](C)CO)C(=O)c2ccccc2-c2ccccc2CO[C@@H]1CN(C)C(=O)[C@H]1CCCN1C	5	3	2.2
29	CC(=O)N1CC(=O)N2[C@H](C1)[C@@H](c1ccc(C#CC(C)C)cc1)[C@@H]2CO	7	-7	14
30	CC(=O)NC[C@H]1[C@H](c2ccc(-c3cccnc3)cc2)[C@@H](CO)N1C(=O)C1CC1	-5	-6	0.4
31	C[C@H](CO)N1C[C@H](C)[C@@H](CN(C)S(=O)(=O)c2ccccc2)Oc2ncc(C#CC3CCCCC3)cc2C1=O	4	0	3.8
32	O=C(c1ccccc1F)N1CC[C@@H]2[C@@H](CO)Nc3ccc(-c4cccc(F)c4)cc3[C@@H]21	-10	-8	-2.0
33	C[C@@H]1CCCCO[C@@H](CN(C)C(=O)Cc2ccccc2)[C@@H](C)CN([C@H](C)CO)C(=O)c2cc(NC(=O)c3ccncc3)ccc2O1	2	5	-2.9
34	COc1ccc(C#Cc2ccc([C@H]3[C@H]4CN(C(=O)C5CCOCC5)CC(=O)N4[C@H]3CO)cc2)cc1	0	2	-1.6
35	COc1ccc2c3c(n(C)c2c1)[C@H](CO)N(C(=O)CC1CC1)CC31CN(Cc2ccccc2)C1	?	.	.
36	C[C@@H]1CN([C@@H](C)CO)C(=O)c2cccc(NC(=O)Nc3ccc(F)cc3)c2O[C@H]1CN(C)S(=O)(=O)c1ccc(Cl)cc1	4	5	-0.7

Molecules listed so far with a cyano group:
No.	compound	DUX4 inh	DUX4 inh difference	DUX4 inh control
7	Cc1ccc(-c2ccccc2[C@@H]2[C@@H](CO)N(C(=O)Cc3cccnc3)[C@H]2C#N)cc1	-2	2	-4.8
24	COCC(=O)N1[C@H](CO)[C@@H](c2ccccc2C2=CCCCC2)[C@@H]1C#N	10	2	8.4
27	N#C[C@H]1[C@H](c2ccccc2)[C@H](CO)N1C(=O)C1CCCC1	-2	-4	1.9

(listing goes on)
No.	compound	DUX4 inh	DUX4 inh difference	DUX4 inh control
37	CCCNC(=O)Nc1ccc2c(c1)C(=O)N(C)[C@@H]1CC[C@@H](CC(=O)NCCCN(C)C)O[C@@H]1CO2	3	-10	13
38	CN(C)C(=O)c1cccc(-c2ccccc2[C@H]2[C@@H](C#N)N(C(=O)C3CCCCC3)[C@H]2CO)c1	5	-4	9.7
39	COC(=O)c1ccc(CN2CC(=O)N3[C@H](CO)[C@@H](c4ccc(-c5ccccc5F)cc4)[C@H]3C2)cc1	6	1	4.3
40	CC=Cc1ccc2n(c1=O)C[C@H]1[C@H](CO)[C@@H](C(=O)NCc3ccc4c(c3)OCO4)[C@@H]2N1C(=O)CC (mixture of isomers)	-2	-10	7.8
41	C/C=C/c1ccc([C@@H]2[C@@H](CO)N(S(C)(=O)=O)C23CN(C(=O)CC)C3)cc1	7	-1	8.1
42	CN(C)C(=O)C[C@@H]1CC[C@@H]2[C@H](COc3ccc(NC(=O)c4ccc(F)cc4)cc3C(=O)N2C)O1	6	8	-1.8
43	C[C@H]1CN([C@@H](C)CO)C(=O)CCCn2cc(nn2)CO[C@@H]1CN(C)S(=O)(=O)c1ccc(Cl)cc1	3	-2	5.0
44	CNC[C@@H]1Oc2ccc(NS(=O)(=O)c3cccs3)cc2C(=O)N([C@H](C)CO)C[C@H]1C	2	0	1.7
45	CO[C@H]1CN(C)C(=O)c2cc(NS(C)(=O)=O)ccc2OC[C@@H](C)N(C(=O)C2CCOCC2)C[C@@H]1C	-6	-3	-2.3
46	CN1C(=O)c2cc(NC(=O)C3CCOCC3)ccc2OC[C@H]2O[C@@H](CC(=O)Nc3ccc4c(c3)CCCC4)CC[C@@H]21	-3	-7	3.7
47	COC(=O)C[C@H]1CC[C@@H]2[C@@H](COc3ccc(NC(=O)NCc4ccccc4)cc3C(=O)N2C)O1	-2	-3	1.5
48	CO[C@H]1CN(C)C(=O)c2cc(NC(=O)C3CCCCC3)ccc2OC[C@@H](C)N(C(=O)c2ccccc2)C[C@H]1C	3	5	-2.4

Further compounds follow:
No.	compound	DUX4 inh	DUX4 inh difference	DUX4 inh control
49	CO[C@H]1CN(C)C(=O)c2cc(NC(=O)C3CC3)ccc2OC[C@H](C)N(C(=O)CN2CCOCC2)C[C@@H]1C	0	-4	4.1
50	O=C(Cc1ccncc1)N1CC[C@H]2[C@H](CO)Nc3ccc(-c4ccccc4)cc3[C@H]21	6	0	6.5
51	Cc1ccc(-c2ccc(C3[C@H]4CNC[C@@H]3N4C(=O)Nc3ccc(F)cc3)cc2)cc1 (stereo partly drawn)	5&18	2&25	2.8&-7.1
52	CCCNC(=O)C[C@@H]1CC[C@H]2[C@@H](COC[C@@H](O)CN2C(=O)Nc2ccc(Cl)c(Cl)c2)O1	15	6	9.5
53	C[C@H]1CCCCO[C@@H](CN(C)Cc2ccc3c(c2)OCO3)[C@@H](C)CN([C@@H](C)CO)C(=O)c2cc(NS(=O)(=O)c3cn(C)cn3)ccc2O1	0	1	-0.7
54	C[C@@H]1CN([C@H](C)CO)C(=O)c2c(c3ccccc3n2C)-c2ccccc2CO[C@H]1CN(C)C(=O)Nc1cccc(Cl)c1Cl	?	.	.
55	C[C@@H]1CCCCO[C@H](CN(C)C(=O)Nc2cccc3ccccc23)[C@@H](C)CN([C@@H](C)CO)C(=O)c2cc(NC(=O)CCC(F)(F)F)ccc2O1	3	0	3.0
56	COc1ccc2c3c([nH]c2c1)[C@H](CO)N(C(=O)c1cccnc1)CC31CCN(C(=O)CN(C)C)CC1	11	-4	15
57	CCCC#Cc1cnc2c(c1)C(=O)N([C@@H](C)CO)C[C@H](C)[C@@H](CN(C)Cc1ccc3c(c1)OCO3)O2	0	1	-1.1
58	C[C@@H]1CN([C@H](C)CO)C(=O)CCCn2cc(nn2)CO[C@@H]1CN(C)C(=O)Nc1ccnc(N2CCOCC2)c1	-2	-3	0.2
59	COc1ccc(C#Cc2ccc([C@@H]3[C@H](CO)N4CCCCN(C(=O)Nc5ccccc5F)C[C@@H]34)cc2)cc1	?	.	.
60	COCC(=O)Nc1ccc2c(c1)C(=O)N(C)C[C@@H](OC)[C@H](C)CN(C(C)=O)[C@@H](C)CO2	5	3	2.6

Carrying on.
No.	compound	DUX4 inh	DUX4 inh difference	DUX4 inh control
61	CCS(=O)(=O)Nc1ccc2c(c1)C(=O)N(C)[C@H]1CC[C@@H](CC(=O)NC3CCCCC3)O[C@@H]1CO2	-1	-1	0.1
62	COc1ccccc1CN1CC2(C1)[C@@H](c1ccccc1)[C@@H](CO)N2Cc1ccccc1	-55*	-27*	-27*
63	CC(C)[C@@H](C)NC(=O)N(C)C[C@H]1OCc2ccccc2-c2ccccc2C(=O)N([C@H](C)CO)C[C@H]1C	-3	1	-3.9
64	COCC(=O)N1CC2(C1)[C@@H](c1ccccc1)[C@H](CO)N2C(=O)c1cccnc1	9	8	1.1
65	COc1ccccc1NC(=O)N1C[C@@H](O)COC[C@@H]2O[C@H](CC(=O)NCc3ccccc3)CC[C@H]21	1	2	-1.0
66	C[C@H]1CN([C@@H](C)CO)C(=O)c2cccc(NS(C)(=O)=O)c2O[C@@H]1CN(C)Cc1ccc(-c2ccccc2)cc1	2	0	2.3
67	Cc1ccc(S(=O)(=O)Nc2ccc3c(c2)C(=O)N([C@@H](C)CO)C[C@@H](C)[C@@H](CN(C)S(C)(=O)=O)O3)cc1	-1	4	-5.1
68	O=C(C[C@H]1CC[C@@H](NC(=O)C2CCOCC2)[C@@H](CO)O1)Nc1nccs1	-3	3	-5.6
69	CCCNC(=O)Nc1ccc2c(c1)C(=O)N(C)[C@@H]1CC[C@H](CC(=O)O)O[C@@H]1CO2	7	10	-2.6
70	Cc1noc(C)c1S(=O)(=O)Nc1cccc2c1O[C@H](CN(C)Cc1ccc(C(F)(F)F)cc1)[C@H](C)CN([C@@H](C)CO)C2=O	1	-1	1.3
71	O=C(NCC1CC1)[C@@H]1[C@@H](CO)[C@@H]2Cn3c(ccc(C4=CCCCC4)c3=O)[C@H]1N2	-3	-2	-0.3
72	CNC[C@H]1OCCCC[C@H](C)Oc2ccc(NC(=O)Nc3cccc4ccccc34)cc2C(=O)N([C@H](C)CO)C[C@@H]1C	1	0	0.9

Other records follow.
No.	compound	DUX4 inh	DUX4 inh difference	DUX4 inh control
73	COc1ccc(CN2C[C@@H](O)COC[C@@H]3O[C@H](CC(=O)N(C)C)CC[C@H]32)cc1	-1	1	-1.7
74	N#C[C@@H]1[C@H](c2ccccc2-c2ccc(F)cc2)[C@H](CO)N1c1ncc(-c2ccccc2)s1	?	.	.
75	COc1cccc(-c2ccc3n(c2=O)C[C@@H]2[C@@H](CO)[C@H](C(=O)NCC4CC4)[C@H]3N2S(C)(=O)=O)c1	1	1	0.3
76	CNC[C@H]1OCCCC[C@@H](C)Oc2ccc(NC(=O)c3ccncc3)cc2C(=O)N([C@H](C)CO)C[C@@H]1C	4	7	-3.1
77	C[C@@H]1CN([C@@H](C)CO)C(=O)CCCn2nncc2CO[C@@H]1CN(C)S(=O)(=O)c1cccc(C#N)c1	2	-3	4.4
